Assay outcomes (PubChem BioAssay)
A647 fluor: qHTS Assay for Spectroscopic Profiling in A647 Spectral Region; 59,000 tested, under 10 active; Compound fluorescence, A647 channel (570/671 nm), Tris buffer; max dye-equivalent concentration, M; active means above 1 µM dye equivalent; inconclusive means 0.1 to 1 µM; inactive means 0.1 µM or less;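 also: values scaled relative to a standard on each plate; highest value over a series up to 38 µM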
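Fluorescence read (570 nm ex, 671 nm em) after 15 min RT incubation of compounds in 100 mM Tris buffer, pH 8.0; values expressed as dye-equivalent concentration against a six-point A647 standard series on each plate.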
A488 fluor: qHTS Assay for Spectroscopic Profiling in A488 Spectral Region | hit rate 0.1% among 59,000 | max dye equivalency, M | AID 591, 2007 | compound autofluorescence, A488 spectral region, dye equivalency; hits give high values; active = above 10 nM dye equivalent; inconclusive = 1 to 10 nM; inactive = 1 nM or less; about half of its hits are not listed in these tables;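 also: highest value over a series up to 38 µM; compound alone in buffer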
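Compound autofluorescence was read in 100 mM Tris pH 8.0 after 15 min at room temperature, ex 480 nm/em 540 nm. Intensities were converted to A488 dye-equivalent concentration using an on-plate six-point A488 standard curve.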
TSHR ag: qHTS Assay for Agonists of the Thyroid Stimulating Hormone Receptor; Thyrotropin receptor (Homo sapiens), P16473; HEK293-CNG-TSHR cells (CNG channel as cAMP sensor), membrane potential dye, cAMP; Potency, µM (doses to about 57.1 µM), for the others: top-dose activation, actives largely listed as activators; hit rate 0.48% among 73,000; active = well fitted activation curve of enough size with the parental cells flat; inconclusive = any curve in the parental cells; inactive = parental cells flat and receptor cells flat or falling; also: potency is read from the fitted curve at half-maximal effect; % of control where 0% means no effect; weak receptor curves with flat parental cells got no call and are not listed
Target sequence (P16473 whole entry, looked up): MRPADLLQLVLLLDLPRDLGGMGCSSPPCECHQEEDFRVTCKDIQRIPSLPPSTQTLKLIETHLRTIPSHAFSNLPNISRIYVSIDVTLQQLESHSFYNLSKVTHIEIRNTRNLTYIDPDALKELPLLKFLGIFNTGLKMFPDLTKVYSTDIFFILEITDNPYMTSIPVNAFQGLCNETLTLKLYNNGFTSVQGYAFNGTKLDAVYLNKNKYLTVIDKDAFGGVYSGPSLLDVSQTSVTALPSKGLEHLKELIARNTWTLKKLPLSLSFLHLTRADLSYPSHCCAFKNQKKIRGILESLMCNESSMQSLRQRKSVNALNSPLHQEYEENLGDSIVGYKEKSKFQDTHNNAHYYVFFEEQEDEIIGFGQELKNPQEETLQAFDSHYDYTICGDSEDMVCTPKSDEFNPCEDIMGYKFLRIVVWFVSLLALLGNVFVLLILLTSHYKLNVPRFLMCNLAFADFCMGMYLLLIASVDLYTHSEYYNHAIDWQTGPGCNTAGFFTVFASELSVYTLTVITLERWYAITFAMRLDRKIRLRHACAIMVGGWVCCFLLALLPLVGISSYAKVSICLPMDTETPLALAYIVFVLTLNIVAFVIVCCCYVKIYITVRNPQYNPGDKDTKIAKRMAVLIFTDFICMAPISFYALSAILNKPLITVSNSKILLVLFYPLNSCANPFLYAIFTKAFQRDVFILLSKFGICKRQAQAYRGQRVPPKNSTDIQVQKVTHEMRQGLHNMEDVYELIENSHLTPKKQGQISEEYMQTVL
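HEK 293 cells stably expressing TSHR and a modified CNG channel, with CNG-only parental cells as counterscreen, were preloaded 60 min at room temperature with membrane potential dye containing 100 uM RO 20-1724. Compound exposure was 30 min, and depolarization was read as fluorescence at 590 nm.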
Resorufin autofl: qHTS Assay for Spectroscopic Profiling in Resorufin Spectral Region | hit rate 0.04% among 59,000 | max dye-equivalent concentration, M | Compound fluorescence, resorufin region 547/598 nm, buffer; hits give high values; active = above 10 nM dye equivalent; inconclusive = 1 to 10 nM; inactive = 1 nM or less; a few of its hits are not listed in these tables; also: highest value over a series up to 38 µM
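Compounds in 100 mM Tris buffer, pH 8.0, incubated 15 min at room temperature, then read with 547 nm excitation and 598 nm emission filters. Fluorescence was converted to dye-equivalent concentration using an on-plate six-point resorufin standard curve.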
AID923: qHTS Assay for Allosteric/Competitive Inhibitors of Caspase-1: Spectroscopic Profiling in AFC Spectral Region; hit rate 1.1% among 75,000; Potency, µM (series often up to 57.5 µM), inactives show at the top dose fluorescence increase, most hits filed as activators; compound fluorescence, AFC spectral region (405/520 nm); almost no hit is shown here; active = well fitted activation curve with a large enough effect; inconclusive = small, poorly fitted or top-dose-only effect;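 also: potency is read from the fitted curve at half-maximal effect; 0% is about no effect; scaled to a free AFC standard on each plate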
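Compound autofluorescence profiled at 405 nm ex/520 nm em during kinetic caspase 1 run (50 nM enzyme, 5 uM Ac-WEHD-AFC, HEPES pH 7.5, 10 mM DTT). Titration up to 57 uM; baseline from regression intercept, normalized to AFC standard curve.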
The depositor's hits bear a star; i = inactive; u = inconclusive; x = not tested or not shown; [ ] = remark or other dose. An excerpt; the hit share may differ from the screen's.

SMILES	A647 fluor	A488 fluor	TSHR ag	Resorufin autofl	AID923
COc1ccc(OC)c(C(=O)CC2OC(=O)c3ccccc32)c1 (centres undefined)	1.21e-08	i	u	i	-0.8%
O=C(c1ccccc1)c1ccc2nc(N3CCCCC3)c3nncn3c2c1	x	x	22.7%	x	10.4%
CC1CCCC(C)N1CCNC(=O)C1CCN(S(=O)(=O)N2CCCCC2)CC1 (centres undefined)	1.17e-08	i	9.0%	i	-1.6%
O=C(NCCCN1CCOCC1)C1CC(=O)N(C2CCCCC2)C1 (centres undefined)	1e-09	i	-1.4%	i	-0.5%
CC1CCN(C(=O)CSc2nc(N)c3c4c(sc3n2)CN(C)CC4)CC1	3.8e-09	i	20.1%	i	-0.6%
Cc1nc2cnc(N(C)C)nc2n(Cc2cccs2)c1=O	1.81e-08	i	8.1%	i	17.4%
O=C(Nc1cccnc1)c1coc(=O)c2ccccc12	1.84e-08	i	-1.1%	i	3.3%
CN(Cc1ccco1)c1nc(-c2cccc(C#N)c2)nc2ccccc12	1e-09	i	x	i	-1.1%
C[C@@H](C(=O)NCc1ccccn1)[C@@H]1C[C@@]1(C)[C@@H](NC(=O)OCc1ccccc1)c1ccccc1	x	x	13.9%	x	-1.8%
COc1ccc2c(c1)cc1n2CCN=C1N	6.2e-09	i	10.4%	i	4.7%
CCCC(=O)C1=C(O)C(C(=O)OC)C(C)(C)CC1=NC (centres undefined)	x	x	3.3%	x	0.6%
O=C(Nc1ccc2oc(-c3ccccc3)nc2c1)c1cccnc1	1e-09	i	-1.8%	i	-0.1%
O=C(COc1ncnc2ccccc12)N1CCN(C(=O)c2ccco2)CC1	1e-09	i	-1.0%	i	0.6%
CCCCCOc1ccc(NS(C)(=O)=O)cc1	8e-09	i	2.6%	i	-2.0%
CSc1ccc(NC(=O)[C@H]2CCCC[C@@H]2C(=O)O)cc1	6.14e-08	i	0.8%[11.4 µM]	i	-2.7%[11.5 µM]
Cc1ccc(OCCN2C(=O)c3ccccc3C2=O)c(C)c1	1e-09	i	u	i	0.0%
Nc1nc2c(c(=O)[nH]1)N[C@H](CCNc1ccc(C(=O)O)cc1)CN2	1e-09	i	-3.2%[11.4 µM]	i	-0.2%[11.5 µM]
Cc1ccc(C(=O)COc2cccc(NC(=O)c3ccco3)c2)cc1	4e-09	i	u	i	0.0%
CCOC(=O)N1CCN(S(=O)(=O)c2ccc3c(c2)SCC(=O)N3)CC1	2.12e-08	i	8.2%	i	-2.3%
O=C(CN1C(=O)NC2(CCCC2)C1=O)Nc1cccc(-c2nnc3n2CCCCC3)c1	6.3e-09	i	u	i	-2.7%

Entries of single compounds from above:
CCCC(=O)C1=C(O)C(C(=O)OC)C(C)(C)CC1=NC (centres undefined) reads A647 fluor = x; A488 fluor = x; TSHR ag = 3.3%; Resorufin autofl = x; AID923 = 0.6%
O=C(Nc1cccnc1)c1coc(=O)c2ccccc12 reads A647 fluor = 1.84e-08; A488 fluor = i; TSHR ag = -1.1%; Resorufin autofl = i; AID923 = 3.3%

An excerpt of these results, as labelled records:
Nc1nc2c(c(=O)[nH]1)N[C@H](CCNc1ccc(C(=O)O)cc1)CN2
- A647 fluor: 1e-09
- A488 fluor: i
- TSHR ag: -3.2%[11.4 µM]
- Resorufin autofl: i
- AID923: -0.2%[11.5 µM]
Cc1ccc(C(=O)COc2cccc(NC(=O)c3ccco3)c2)cc1
- A647 fluor: 4e-09
- A488 fluor: i
- TSHR ag: u
- Resorufin autofl: i
- AID923: 0.0%

Remaining list, next part:
SMILES	A647 fluor	A488 fluor	TSHR ag	Resorufin autofl	AID923
C=C(C)Cn1c(-c2ccc(OC)cc2)nc2ccccc21	2e-09	i	x	i	x
CC(NC(=O)c1cccs1)C(c1cccs1)N1CCN(c2ccccc2)CC1 (centres undefined)	4.17e-08	i	8.5%	i	1.5%
CCOC(=O)c1sc(/N=C/N(C)C)c(C(=O)OCC)c1C	x	x	24.1%	x	0.1%
O=c1ccc(=O)n2n1CC(O)C2	1.89e-08	i	2.1%	i	-0.3%
Cc1cccc(C(=O)OCC(=O)Nc2ccc(N3CCCCC3)cc2)c1O	2e-09	i	-1.4%	i	-0.9%
Nc1cnn(C2CCCO2)c(=O)n1 (centres undefined)	5.6e-09	i	10.0%	i	-1.3%
CCCn1c(-c2ccc(F)cc2)n[nH]c1=S	4.2e-09	i	2.5%	i	2.3%
CCOC(=O)c1ccc(N2C(=O)CC(NC3CCN(C(=O)c4cccc(Cl)c4)CC3)C2=O)cc1 (centres undefined)	4.8e-09	i	-18.5%	i	-0.2%
O=C(O)C1CCCCC1C(=O)Nc1nccs1 (centres undefined)	x	x	-9.0%	x	0.9%
O=C(NCCCN1CCOCC1)c1cc(-c2ccc(Br)cc2)on1	3.66e-08	i	12.7%	i	0.2%
CSc1nsc(SCc2cnc(C)nc2N)n1	3.7e-09	i	2.6%	i	-0.3%
CCOc1ccccc1-n1c(SCC(N)=O)nc2ccccc2c1=O	2.9e-08	i	-5.0%	i	-0.1%
CCOC(=O)C1=C(C)N=c2s/c(=C\c3cccn3C)c(=O)n2C1c1cccc(OC)c1OC (centres undefined)	x	x	-0.8%	x	6.1%
COCCN1CCN(c2c(C)c(C)nc3cc(-c4cccc(OC)c4)nn23)CC1	2.9e-09	i	3.6%	i	-0.8%
CCOc1nc(SCCOc2ccccc2)nc(N(C)C)n1	1.4e-09	i	x	i	x
CCOC(=O)COc1ccc(Cl)cc1C1NC(=O)NC(C)=C1C(C)=O (centres undefined)	8.21e-08	i	3.1%	i	-1.6%
CSc1ccccc1C(=O)NC1CC2CCC1C2 (centres undefined)	1.8e-09	i	8.4%	i	-2.2%
Cc1ccc(CCNC(=O)C2CCN(C(=O)c3sccc3-n3cccc3)CC2)cc1	2.81e-08	i	u	i	0.8%
O=C(Nc1nnc(-c2ccccc2)o1)NC1CCCCC1	4.09e-08	i	-1.0%	i	-0.2%
CC1CC(=O)c2cnc(NCC3CCCO3)nc2C1 (centres undefined)	1.4e-08	i	2.2%	i	0.1%
COc1cccc(N2C(=O)C(CC(=O)Nc3ccc(F)cc3)N(C3CCCCC3)C2=O)c1 (centres undefined)	1.3e-09	i	-1.1%	i	-0.3%
COc1ccc(S(=O)(=O)Nc2ccc(F)c(F)c2)cc1Cl	8.2e-09	i	-15.1%	i	-2.6%
O=C(Nc1ccc2c(c1)OCO2)C1CCN(c2ccc(S(=O)(=O)N3CCOCC3)cc2)CC1	1e-09	i	-5.9%	i	1.4%
COc1ccc(-c2nc3cnccn3c2Nc2ccc3c(c2)OCO3)cc1	x	x	u	x	-2.5%
O=C(O)C1C2C=CC3(O2)C1C(=O)N1c2ccccc2COC13 (centres undefined)	2.75e-08	i	-4.6%	i	-1.6%
O=C(c1cccc(S(=O)(=O)N2CCOCC2)c1)N1CCCc2ccccc21	6.31e-08	i	8.5%	i	-0.8%
Nc1ccccc1-c1nnc(SCc2ccccc2F)[nH]c1=O	x	x	1.8%	x	-2.1%
O=C1CCC(=O)N1c1ccccc1-c1ccccc1	x	x	-0.9%	x	-0.4%
Cc1ccc(Nc2nc(N)nc(CN3CCN(Cc4ccc5c(c4)OCO5)CC3)n2)cc1	6.12e-08	i	10.2%	i	1.7%
CC(C)C1N(S(=O)(=O)c2ccccc2)CCN1S(=O)(=O)c1ccccc1	8.1e-09	i	u	i	-0.4%
COc1ccc2nc(SCC(=O)Nc3ccc(S(=O)(=O)Nc4onc(C)c4C)cc3)[nH]c2c1	3.64e-08	i	0.3%	i	-1.6%
COc1ccc(-n2c(=O)cnc3cnc(OC)nc32)cc1	5.7e-09	i	u	i	1.3%
Cc1n[nH]c(C)c1S(=O)(=O)N1CCOCC1	1e-09	i	6.1%	i	-0.4%
S=P(c1ccc(N2CCOCC2)cc1N1CCOCC1)(N1CCOCC1)N1CCOCC1	1e-09	i	-0.8%	i	-0.3%
COC(=O)C1(CCSC)NC(c2ccc(O)cc2)C2C(=O)N(c3ccc4c(c3)OCCO4)C(=O)C21 (centres undefined)	3.4e-09	i	3.9%	i	0.7%
COc1ccccc1C(=O)N1CCN(c2cccc(Cl)c2)CC1	5.28e-08	i	u	i	0.4%
N#Cc1ccc(OCC(=O)NCCc2ccc(S(N)(=O)=O)cc2)cc1	2.69e-08	i	1.2%	i	0.3%
O=S(=O)(CCc1nc2ccccc2o1)c1ccc(Cl)c(Cl)c1	x	x	13.3%	x	-1.5%
CC(=O)c1sc(NC(=O)c2ccc(Cn3cc(Br)cn3)o2)nc1C	1.49e-08	i	-15.7%	i	1.8%
CCOC(=O)C1CCN(CC(=O)Nc2c(C(=O)OC)[nH]c3cccc(C)c23)CC1	9.7e-09	i	1.3%	i	0.6%
CC(=O)c1c(N(C)C)ccnc1C(F)(F)F	x	x	3.8%[11.4 µM]	x	-0.1%
N#Cc1c(NC(=O)Cn2cnc3ccccc3c2=O)oc(-c2ccccc2)c1-c1ccccc1	2.7e-09	i	22.3%	i	-1.0%
CCOc1ccc(/C(O)=C2/C(=O)C(=O)N(CCOCCO)C2c2ccc(F)cc2)cc1 (centres undefined)	3.09e-08	i	-4.8%	i	-2.4%
CCn1c(Cc2ccc(OC)cc2)nnc1SCC(=O)NC1CCCCC1	2.96e-08	i	u	i	0.0%
O=C(CSc1nc2ncccc2[nH]1)NCc1ccccc1	x	x	2.0%[11.4 µM]	x	-0.4%
CCOc1ccc(C2N(c3cc(C)on3)C(=O)C3CCCN32)cc1OC (centres undefined)	5e-09	i	1.6%	i	2.1%
N=c1c2c3c(sc2ncn1N)CCCCC3	6.9e-09	i	7.0%	i	-1.8%
COc1ccccc1CNCc1cc(OC)c(OC)cc1OC	x	x	3.5%[11.4 µM]	x	-0.4%
COc1ccc(NC(=O)c2ccco2)cc1NC(=O)c1cccs1	1e-09	i	-2.8%	i	-0.8%
CCN(CC)CCNS(=O)(=O)c1ccc(Cl)cc1	6.6e-09	i	7.7%	i	2.2%
(more compounds)
SMILES	A647 fluor	A488 fluor	TSHR ag	Resorufin autofl	AID923
CC(=O)Nc1ccc(S(=O)(=O)N2CCN(C(=O)N3CCOCC3)CC2)cc1	1.33e-08	i	13.7%	i	4.5%
CN(C)/C=C1\N=C(c2ccc3c(c2)OCO3)OC1=O	x	x	-14.8%	x	0.4%
O=C1c2ccccc2C(=O)N1CCc1nc(-c2ccccn2)no1	1.78e-08	i	-0.8%	i	-0.7%
O=C(O)CCCCCN=C1CCc2ccccc2N1	1.94e-08	i	-1.6%	i	1.7%
Cc1ccc(C2/C(=C(\O)c3ccc4c(c3)OCCO4)C(=O)C(=O)N2CCCN(C)C)o1 (centres undefined)	1.1e-09	i	x	i	x
N#Cc1cccc(NC(=O)N2CC[C@@]3(CCCNC3)C2)c1	1e-09	i	3.5%	i	4.0%
C=CCn1c2ccccc2c2nnc(SCC(=O)NC(C(=O)OC)C(C)C)nc21 (centres undefined)	2.8e-09	i	12.9%	i	-0.3%
O=C1NC(Nc2nc3ccccc3s2)(C(F)(F)F)C(=O)N1C1CCCCC1 (centres undefined)	4.14e-08	i	39.1%	i	0.7%
Cc1ccc(CNC(=O)c2ccc(Cn3nc(C)c(Cl)c3C)o2)cc1	4.1e-09	i	u	i	-0.1%
CCOC(=O)C1(C)NC(c2ccc(OC)cc2OC)C2C(=O)N(c3cccc(OC)c3)C(=O)C21 (centres undefined)	1e-09	i	4.9%	i	0.5%
C=CCOC(=O)C1=C(C)Nc2nnnn2C1c1cccc(OC)c1OC (centres undefined)	1.46e-08	i	2.1%	i	-0.7%
COc1c(C)cc(Br)cc1C(=O)Nc1cccc(NC(=O)c2ccco2)c1	1.56e-08	i	11.4%	i	-0.4%
CC(NC(=O)Nc1ncccn1)(C(F)(F)F)C(F)(F)F	1e-09	i	x	i	x
